# Mtb bLac sens – beta-lactam sensitization of Mtb H37Rv. hit rate 0.27% among 330,000. inhibition, % at 25 µM. M. tuberculosis H37Rv growth with meropenem, percent inhibition; hits of this screen are not shown here;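 active means about 74% or more and at least 40 points above the plate without the antibiotic, then above 30% in a dose series; inconclusive means first-round hits that could not be retested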;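 further: growth measured after seven days incubation then overnight dye step; 0% = bacteria only wells and 100% = bacteria with antibiotic; twin plates without the antibiotic show which effects depend on it; some results filed as inactive read as strong as hits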
# Arbovirus anti – antivirals against arbovirus infection; hit rate 0.37% among 200,000; AID 1251; inhibition, % at 10 µM; arbovirus infection cell-based antiviral screen;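 active means inhibition from about 30%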;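 further: bluetongue infection of BSR cells; cell survival read as ATP light after 72 h; 0% = infected wells without compound and 100% = uninfected wells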
# YopH PTP inh – inhibitors of Yersinia enterocolitica YopH tyrosine phosphatase; fluorescence Ex485/Em525; AID 898; hit rate 0.16% among 140,000; inhibition, %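 (about 10 µM by stock and volumes)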;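 active means inhibition of 50% or more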;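 further: controls were vehicle for no effect and minimum signal wells for full effect; inactives centre near -20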
# RecA intein inh – Mtb RecA intein splicing inhibition. P9WHJ3. cell-free RecA intein splicing, fluorescence. inhibition, %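 (about 9 µM by stock and volumes)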. hit rate 0.75% among 290,000. AID 2221; in the data active means inhibition above about 30%; inconclusive means no clear call, values can overlap the other calls;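 further: 0% = vehicle wells and 100% = reference inhibitor control wells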
# Target sequence (P9WHJ3 whole entry, looked up): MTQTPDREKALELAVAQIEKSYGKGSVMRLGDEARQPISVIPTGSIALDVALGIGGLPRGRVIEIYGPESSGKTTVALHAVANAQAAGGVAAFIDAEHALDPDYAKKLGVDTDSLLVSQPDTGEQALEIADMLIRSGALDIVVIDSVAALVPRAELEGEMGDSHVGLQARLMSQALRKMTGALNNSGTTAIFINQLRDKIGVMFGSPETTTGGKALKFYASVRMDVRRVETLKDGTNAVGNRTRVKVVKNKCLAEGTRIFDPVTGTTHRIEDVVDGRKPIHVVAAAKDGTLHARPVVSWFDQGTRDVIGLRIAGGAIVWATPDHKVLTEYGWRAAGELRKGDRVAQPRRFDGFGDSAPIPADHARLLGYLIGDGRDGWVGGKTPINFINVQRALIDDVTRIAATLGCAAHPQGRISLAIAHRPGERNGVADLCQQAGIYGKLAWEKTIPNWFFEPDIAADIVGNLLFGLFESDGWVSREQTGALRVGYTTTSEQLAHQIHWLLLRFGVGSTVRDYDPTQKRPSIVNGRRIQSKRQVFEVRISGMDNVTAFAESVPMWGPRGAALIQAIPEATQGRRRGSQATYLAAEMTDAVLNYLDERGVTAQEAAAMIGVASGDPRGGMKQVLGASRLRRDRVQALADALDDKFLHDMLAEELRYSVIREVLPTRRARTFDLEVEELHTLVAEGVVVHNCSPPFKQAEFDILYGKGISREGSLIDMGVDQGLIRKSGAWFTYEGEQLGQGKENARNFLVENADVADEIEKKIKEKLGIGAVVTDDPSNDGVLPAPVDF
# Mtb H37Rv – M. tuberculosis H37Rv growth inhibitors, H37Rv strain (AID 1626). hit rate 0.95% among 220,000. M. tuberculosis H37Rv growth inhibition; higher % means a stronger effect. one-dose inhibition, % at 10 µM; IC50 in µM for titrated hits;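 active means confirmed in a dose series; inconclusive means inhibition above 80% but not taken into the dose series; inactive means below 80% or under 30% at every dose of the series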;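 further: bacteria incubated seven days before Alamar blue readout; 0% = bacteria only wells and 100% = bacteria with antibiotic wells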
# Arbovirus anti repeat – second read-out of Arbovirus anti, no call of its own (marks repeat the call); inhibition, %; measured here: 10K subset replicate screen; many hits read low in the repeat;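 first of two repeat runs on a subset; 0% = infected and 100% = uninfected wells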
# The depositor's hits bear a star; ? = inconclusive; . = no result given. Only part of the results is shown (hit frequency here may not be typical).
SMILES,Mtb bLac sens,Arbovirus anti,YopH PTP inh,RecA intein inh,Mtb H37Rv,others
CC(C)CCN(C(=O)Cc1ccccc1F)c1c(N)n(Cc2ccccc2)c(=O)[nH]c1=O,-2.4,-5.3,.,-0.5,1.8%,
O=C(c1cccc(F)c1)N1CCN(S(=O)(=O)Cc2ccccc2)CC1,-8.4,.,.,-1.6,-4.0%,
CCC1(C)CC(c2nc(-c3ccc(OC)cc3)cs2)CCS1 (stereo not drawn),7.5,2.8,-14.2,8.9,7.5%,
COc1ccc(CCN2CC(C(=O)NCCc3cnn(C)c3)CCC2=O)cc1 (stereo not drawn),2.4,.,.,-0.2,.,
CCC(C)[C@H](NC(=O)NC1CC1)C(=O)O (stereo partly drawn),?,-5.5,-43.3,2.5,-2.3%,
Cc1nc(-c2ccccc2O)n(S(=O)(=O)N(C)C)n1,-8.5,8.4,-5.0,-0.1,-7.7%,
CC(C)(C)C1CCC(OC(=O)CCC(=O)Nc2ccccc2)CC1 (stereo not drawn),-9.4,1.6,1.3,0.3,-3.7%,
CCCSC1=N/C(=C\c2ccc3c(c2)OCO3)C(=O)S1,87.5,2.1,-22.6,-3.6,8.0%,
CSc1ccccc1C(=O)C1CCCN(C(=O)NC(C)C)C1 (stereo not drawn),5.0,3.7,.,-1.6,2.1%,
CCN(C(=O)COC(=O)CSc1ccc(C(N)=O)cc1[N+](=O)[O-])C1CCCCC1,-13.2,.,.,-1.7,.,
Cc1ccccc1Oc1nnc(-c2cccs2)c2ccccc12,.,-1.0,-26.7,-3.9,13.6%,
COc1ccc(OCc2nnc3n2N=C(c2ccc(C)cc2)CS3)cc1,2.3,-2.1,.,-1.9,-0.4%,Arbovirus anti repeat=-1.3
COc1ccccc1NC(=S)NC1CCCCCCCCCCC1,-5.3,.,.,-0.5,-1.9%,
Cn1c(=O)cc(OCC(=O)NCCC2=CCCCC2)c2ccccc21,6.5,-3.1,.,0.8,-1.2%,
CCOC(=O)c1cc2occc2n1Cc1ccc(F)cc1,17.5,-10.3,2.8,.,-4.4%,
Cc1ccc(C(=O)NCC(=O)OCC(=O)NCCc2ccccc2)s1,-3.0,2.1,.,-4.3,-2.5%,
CCOC(=O)CN1C(=O)/C(=C/c2cccc(Br)c2)Oc2ccccc21,1.4,.,.,-2.3,.,
O=C(NC1CCCCC1)c1ccc(COc2ccccc2)o1,4.7,.,.,-1.3,.,
O=[N+]([O-])c1ccccc1/C=C/C=N/n1c(-c2ccc(Cl)cc2)n[nH]c1=S,-4.0,15.0,-23.1,3.1,12.6%,
COc1ccc2nc(NC(=O)c3ccccc3[N+](=O)[O-])sc2c1,7.9,.,.,2.6,.,
COc1ccc(-c2cc(C)no2)cc1S(=O)(=O)N1CCN(c2ccccc2F)CC1,2.5,.,.,2.1,.,
CCC(C)n1c(-c2ccco2)nc2nc3ccccc3nc21 (stereo not drawn),4.5,2.0,-14.1,-41.5,.,
CCOc1ccc(NC(=O)CN2CCN(CC(=O)Nc3cccc(F)c3)CC2)cc1,-8.6,-6.4,-20.6,.,-1.7%,
Cn1nccc1C(=O)c1ccc(Cl)cc1,2.6,3.1,-11.5,3.7,-1.9%,
Cc1cccc(-c2noc(CN(C)C(=O)c3ccco3)n2)c1,-8.2,.,.,-0.2,.,
COc1cc(SC)ccc1C(=O)Nc1ccc2c(c1)CCC2,8.0,.,.,0.9,.,
O=C(Cc1ccccc1)NN1C(=O)C2C3C=CC(C3)[C@@H]2C1=O (stereo partly drawn),-7.7,4.8,-41.0,-1.9,-5.3%,
CC1(CCc2ccccc2)NC(=S)N(c2ccccc2)N1 (stereo not drawn),-1.7,-33.9,-16.5,-2.5,7.6%,
C=CCNC(=O)c1ccccc1NC(=O)c1cccc2ccccc12,2.6,-10.8,-3.9,1.0,3.7%,
CCc1ccc(-c2ccc3nnc(SCC(N)=O)n3n2)cc1,2.5,.,.,-1.0,.,
COc1cccc(C2CC(c3ccc(Cl)cc3Cl)n3nc(N)nc3N2)c1 (stereo not drawn),2.7,-4.5,.,2.9,-1.9%,Arbovirus anti repeat=8.9
CCCCCCCNC(=O)C1(CC2CC(c3ccc(Cl)cc3)=NO2)CCN(C(=O)c2cc(OCC)c(OCC)c(OCC)c2)CC1 (stereo not drawn),-3.4,.,.,-0.5,.,
O=c1[nH]c(/C=C/c2ccccc2)c([N+](=O)[O-])c(=O)[nH]1,-0.9,.,.,4.4,.,
Cc1nc(=S)n(-c2ccccc2)[nH]1,-9.8,0.1,11.5,6.5,1.5%,
Cc1cccc(S(=O)(=O)N2CCC(CO)(Cc3ccccc3)CC2)c1,3.9,8.6,.,8.4,1.3%,
NC(=O)c1cc2n(n1)C(C(F)(F)F)CC(c1ccco1)N2 (stereo not drawn),-11.9,-8.2,3.1,-5.2,-17.0%,
Cn1c(=O)n(CCc2ccccc2)c(=O)c2c1ncn2Cc1ccccc1,?,-26.8,33.3,3.0,8.3%,
O=C(Nc1nc2ccc([N+](=O)[O-])cc2s1)c1ccco1,-0.6,-7.6,.,1.3,-6.0%,
CCN(CC(=O)NCc1cccs1)C(=O)c1ccc(NS(=O)(=O)c2ccc(C(C)=O)cc2)cc1,-13.8,.,.,1.4,.,
Cc1cc(C)n(-c2nnc(C)n2N)n1,2.1,-0.2,-46.7,-2.4,-5.7%,
CCCCc1ccc(NC(=S)Nc2ccc(Cl)c(S(=O)(=O)N(C)C)c2)cc1,74.7,-18.8,-24.3,9.3,?,
O=C(O)c1ccc(N=C2SCC(=O)N2Cc2ccccc2)cc1,-7.1,-0.6,.,-2.6,-5.7%,
CC1CCCC(NC(=O)COC(=O)CSc2ccc3ccccc3c2)C1C (stereo not drawn),4.4,4.7,-30.4,0.3,-1.1%,
O=C1C2CC=CCC2C(=O)N1CNc1ccccc1 (stereo not drawn),2.7,0.5,-29.2,-2.2,-6.8%,
CCN(CC)CCN1C(=O)C(=O)/C(=C(/O)c2ccc(OC)cc2)C1c1ccco1 (stereo not drawn),-1.9,-1.6,-1.6,-1.3,.,

# Three entries picked at random from those above:
SMILES,Mtb bLac sens,Arbovirus anti,YopH PTP inh,RecA intein inh,Mtb H37Rv,others
CC1(CCc2ccccc2)NC(=S)N(c2ccccc2)N1 (stereo not drawn),-1.7,-33.9,-16.5,-2.5,7.6%,
CCOC(=O)c1cc2occc2n1Cc1ccc(F)cc1,17.5,-10.3,2.8,.,-4.4%,
CC1CCCC(NC(=O)COC(=O)CSc2ccc3ccccc3c2)C1C (stereo not drawn),4.4,4.7,-30.4,0.3,-1.1%,

# Other compounds
SMILES,Mtb bLac sens,Arbovirus anti,YopH PTP inh,RecA intein inh,Mtb H37Rv,others
O=C(CCc1nc2ccccc2c(=O)[nH]1)OCc1ccc(-c2ccccc2)cc1,9.9,-2.0,-32.6,1.3,6.3%,
CN(Cc1nc(-c2cccs2)no1)CC1(N2CCOCC2)CCCCC1,0.8,-5.5,.,0.8,-0.7%,
CCOc1ccc(OCC)c(NC(=O)CN(C)S(=O)(=O)c2cccc3nsnc23)c1,-4.9,-4.8,-38.7,2.6,-16.3%,
COC(=O)CC1=C(C)C(=O)CC2C(C)(C)CCCC12C (stereo not drawn),-5.4,2.3,-51.4,0.8,-1.0%,Arbovirus anti repeat=8.1
O=C(O)CC1=C(O)C(=O)N(c2ccccc2)C1c1ccccc1 (stereo not drawn),-18.7,13.3,-34.3,3.2,2.8%,
CCOC(=O)c1c(C)n(-c2ccc(F)cc2)c2ccc(O)cc12,-6.7,.,.,-0.6,.,
O=S(=O)(Nc1ccc(F)cc1)N1CCCCCC1,-8.1,-4.8,-15.4,3.2,-3.3%,
COc1cc2cc(C)nc(Cc3cccc4ccccc34)c2cc1OC,-5.7,-6.0,-10.8,3.8,3.3%,
CC(=O)Nc1ccc(S(=O)(=O)NCCNc2ccccc2[N+](=O)[O-])cc1,-10.0,22.9,.,-0.6,8.4%,
CCOc1ccc2c(=O)c(Oc3ccccc3OCC)coc2c1,-7.1,-0.3,-1.9,-1.2,4.6%,
Cc1ccc(NC(=S)NCCN(C2CCCCC2)C2CCCC2)cc1C,-2.7,-11.1,.,0.5,13.3%,
COc1ccccc1NC(=O)CCN1C(=O)C2CC=C(Cl)CC2C1=O (stereo not drawn),5.6,3.5,-23.2,-0.9,-2.3%,
NS(=O)(=O)c1ccc(N/N=C/c2cn(-c3ccccc3)nc2-c2cccs2)cc1,77.1,-37.4,-21.0,2.4,47.7%,
O=C1CN(S(=O)(=O)c2cc(Cl)ccc2Cl)c2ccccc2N1,6.5,.,.,-0.8,.,
Cc1nn(Cc2cccc(C(=O)NC34CC5CC(CC(C5)C3)C4)c2)c(C)c1Br,9.4,-14.1,2.2,3.7,7.7%,
Cn1c(=O)c2c(nc(Sc3ncccn3)n2Cc2ccc(Cl)cc2)n(C)c1=O,2.7,1.1,-43.6,0.6,-9.3%,Arbovirus anti repeat=2.3
Cc1nc(N2CCN(S(=O)(=O)c3ccccc3)CC2)c2c3c(sc2n1)CC(C)CC3 (stereo not drawn),.,-4.7,-36.0,.,17.7%,
O=C(CO/N=C\c1ccccc1)Nc1ccccc1C(=O)N1CCOCC1,0.0,5.7,-9.6,4.3,-0.8%,
COc1ccc(NC(=S)N2CCN(C(c3ccccc3)c3ccccc3)CC2)cc1OC,-3.1,-0.4,-8.7,10.1,-1.8%,
CC[n+]1c(/C=C/C=C/N(C(C)=O)c2ccccc2)sc2cc(OC)ccc21,2.0,-23.9,-25.2,.,7.3%,
Cc1cccc(NC2=NC(=S)N(c3cccc(C(=O)O)c3)C23CCCCC3)c1,7.5,-3.3,.,2.6,3.8%,
Cc1ccc(NC2=C(N3CCOCC3)C(=O)c3ccccc3C2=O)cc1,5.3,-0.1,88.9*,41.0*,13.8%,
CN1CCN(NC(=O)c2ccc(Cl)s2)CC1,-1.0,0.4,.,-0.5,-6.7%,
Cc1ccc(-n2c(SCC(=O)Nc3ccc(C(=O)O)cc3)nnc2-c2ccncc2)cc1,-11.2,.,.,-2.1,-7.4%,
NC1=NC(=O)/C(=C/c2ccc(Cl)cc2Cl)S1,94.4,.,.,0.4,.,
COC(=O)c1ccccc1NC(NC(=O)c1ccco1)C(=O)c1ccccc1 (stereo not drawn),0.6,-15.2,-33.9,0.8,-16.3%,
O=C(COc1cccc(Cl)c1)Nc1ccc2c(c1)CCC2,87.8,-2.1,-21.0,9.3,22.4µM*,
O=C(Nc1ccc2c(c1)OCO2)c1ccc(Br)s1,81.5,-12.9,0.5,4.0,10.0%,
CC(=O)N1CCCc2cc(S(=O)(=O)Nc3ccccc3C)ccc21,-3.9,.,.,0.1,.,
COc1ccccc1CNc1ncccn1,-5.3,.,.,-1.7,.,
COc1ccc(N(C(C)=O)S(=O)(=O)c2cc(OC)ccc2OC)cc1,-6.9,-2.1,-7.4,-1.5,-0.6%,
COc1ccc(C2(NC(C)=O)CCN(C(=O)CCC(=O)O)CC2)cc1,-3.0,-3.4,2.6,-1.1,1.7%,
COc1ccc(-n2c(-c3ccco3)nc3c(cnn3-c3ccccc3C)c2=O)cc1,-10.0,.,.,1.5,0.3%,
Nc1ccc(C(=O)OCC(=O)c2cccc([N+](=O)[O-])c2)cc1,-7.4,3.3,.,3.0,-5.0%,
CSc1nnc(-c2cc3c(-c4ccccc4)nn(C)c3s2)n1C,48.9,-15.1,-18.5,2.0,13.6%,
CCCOc1ccc(S(=O)(=O)N2CCOCC2)cc1[N+](=O)[O-],1.7,-3.3,.,2.1,7.6%,
Clc1cccc(OCc2nc(-c3ccncc3)n[nH]2)c1,-0.1,-9.0,.,-2.5,4.7%,
Cc1cc(-c2ccc(/C=N/n3cnnc3)o2)c(C)c([N+](=O)[O-])c1,0.0,.,.,4.5,.,
S=c1[nH]nc(-c2cccc(Cl)c2)n1Cc1ccccc1,0.8,-24.1,-20.5,-1.4,-0.9%,
Cc1cccc(N2CCN(C(=O)c3ccc4nc(N5CCCCC5)sc4c3)CC2)c1C,98.0,.,.,10.1,7.98µM*,
Cc1ccc(-c2cc(-c3ccccc3)[nH]c(=S)c2C#N)cc1,-1.2,0.8,-23.9,9.2,-10.4%,
O=C(O)c1ccc(N=NN2CCCCC2)cc1,-6.2,4.5,.,1.1,-0.2%,
Cc1ccsc1C(=O)C1CCCN(Cc2cc3ccccc3o2)C1 (stereo not drawn),-0.6,8.6,.,7.4,20.4%,

# A portion of the results above:
SMILES,Mtb bLac sens,Arbovirus anti,YopH PTP inh,RecA intein inh,Mtb H37Rv,others
O=C(O)c1ccc(N=NN2CCCCC2)cc1,-6.2,4.5,.,1.1,-0.2%,
Cc1ccsc1C(=O)C1CCCN(Cc2cc3ccccc3o2)C1 (stereo not drawn),-0.6,8.6,.,7.4,20.4%,
